Bioassay records from PubChem.
D2 agonist: human D2 receptor agonism in beta-arrestin assay; P14416; DiscoveRx PathHunter D2 beta-arrestin, luminescence, 90 min; 100% = 57 uM dopamine signal; activation, % (test concentration not listed); hit rate 0.084% among 360,000; AID 624465; in the data active = activation above about 40%; inconclusive = about 15% to 40%; inactive = below about 15%; note: compound concentration not given in the record; the text of the record calls up to 30% inactive
Target sequence (P14416 whole entry, looked up): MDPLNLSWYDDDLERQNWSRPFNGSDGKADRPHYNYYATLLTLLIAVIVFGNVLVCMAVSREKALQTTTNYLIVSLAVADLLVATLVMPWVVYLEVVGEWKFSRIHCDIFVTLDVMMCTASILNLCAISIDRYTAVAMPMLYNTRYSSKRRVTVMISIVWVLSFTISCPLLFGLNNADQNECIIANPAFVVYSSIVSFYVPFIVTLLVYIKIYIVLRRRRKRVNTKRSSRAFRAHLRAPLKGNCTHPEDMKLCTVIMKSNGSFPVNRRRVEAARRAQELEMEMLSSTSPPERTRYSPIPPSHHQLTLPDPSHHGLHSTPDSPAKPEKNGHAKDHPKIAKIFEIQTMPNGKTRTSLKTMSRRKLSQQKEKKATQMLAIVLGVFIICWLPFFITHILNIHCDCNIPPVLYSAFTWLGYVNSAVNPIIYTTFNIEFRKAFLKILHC
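DiscoveRx PathHunter D2 beta-arrestin cells (2,100/well) attached overnight, then compound-stimulated 90 min at 37 C in HBSS/10 mM HEPES/0.1% Tween-20 buffer; beta-galactosidase complementation read by luminescence after 1 h at ambient temperature. Dopamine 57 uM final (EC100) as control.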
Sfp PPTase inh: inhibitors of Bacillus subtilis Sfp phosphopantetheinyl transferase; Q9F4F7; Biochemical Sfp PPTase activity, qHTS; Potency, µM, for the others: max response, negative = inhibition, actives largely listed as inhibitors; hit rate 3.5% among 310,000; AID 1490; active = well fitted inhibition curve with a large enough effect; inconclusive = small, poorly fitted or top-dose-only effect, or another doubt; inactive = no such curve, though single readings can be large or run the other way;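 note: the enzyme is Sfp with the accession as filed and its product quenches rhodamine fluorescence; potency is the fitted concentration of half-maximal effect; 0% = enzyme reaction without inhibitor and -100% = no enzyme wells; top concentration of the series not given in the record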
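Compounds were incubated with enzyme (final 15 nM) for 15 min at room temperature before substrate addition started the reaction. Fluorescence at 525 nm excitation, 598 nm emission was recorded immediately and after 30 minutes.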
PINK1 expr mod: modulators of PINK1 expression. PINK1 immunofluorescence, high-content cytometry, 24 h. Potency, µM (highest dose often 76.6 µM), for inactives: at the highest dose activation (PINK1 increase), usual class: activators. hit rate 0.2% among 410,000; active = well fitted activation curve with a large enough effect; inconclusive = small, poorly fitted or top-dose-only effect; inactive = flat fitted curve, though single readings scatter; cell line not stated here;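 note: potency is the fitted concentration of half-maximal effect; % of control where 0% means no effect; nearly all actives have a fitted effect of over 65% in size; a mitochondrial uncoupler was the plate control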
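Readout is PINK1 immunofluorescence, quantified alongside mitochondrial, cell and nuclear markers by laser-scanning microplate cytometry. Cells from a stable line were exposed to compound titrations (5 concentrations) for 24 hours, with CCCP controls.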
Menin MLL FP FL: menin-MLL binding inhibition, fluorescein peptide; Fluorescence polarization, fluorescein-MLL peptide displacement from menin; FP activity change, % at 61.4 µM; 290,000 tested, under 10 active; inconclusive = falling polarisation curve, or a change in total fluorescence; inactive = total fluorescence flat and polarisation flat or rising; no compound was filed as active; the % refers to the polarisation; negative = inhibition;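 note: % of control where 0% means no effect; inhibitors lower the polarisation; unlabelled MLL peptide was the positive control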
gsp antagonist: antagonists of gsp mutant (McCune-Albright syndrome); gsp-mutant cells, cAMP HTRF, 30 min; control for the full effect not named in the record; Potency, µM (titrated, usually from 76.9 µM), for the others: at the top dose activity change, negative = inhibition, actives largely listed as inhibitors; hit rate 0.4% among 340,000; active = falling curve of any shape with a large fitted effect; inconclusive = falling curve, mostly with a smaller effect; inactive = flat or rising curve; cell line not stated here;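 note: intracellular cAMP measured with PDE inhibitor Ro 20-1724 present during compound exposure; potency is the fitted concentration of half-maximal effect; % is set by controls: 0 for no effect and ±100 for the full control effect; nearly all actives have a fitted effect of over 65% in size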
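HTRF cAMP measurement after 30 min RT detection following 30 min, 37C compound treatment alongside […] (added as 300 uM solution) in G418-selected cells seeded at 2000/well and grown 16–24 h.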
ClpP mod: qHTS Assay for Activators of ClpP; Potency, µM (series often up to 57.5 µM), without a hit: at the highest dose activity change, negative = active; hit rate 1.9% among 340,000; purified B. subtilis ClpP, FRET peptide cleavage, 20 min; ATP-dependent Clp protease proteolytic subunit (Bacillus subtilis (strain 168)), P80244; active = well fitted falling curve with a large enough effect; inconclusive = small, poorly fitted or top-dose-only effect; inactive = no such curve, though single readings can be large or run the other way; note: potency is the fitted concentration of half-maximal effect; the source files actives as falling curves though it sought activators and does not explain the sign; nearly all actives have a fitted effect of over 65% in size; many hits overshoot -100%
Target sequence (P80244 whole entry, looked up): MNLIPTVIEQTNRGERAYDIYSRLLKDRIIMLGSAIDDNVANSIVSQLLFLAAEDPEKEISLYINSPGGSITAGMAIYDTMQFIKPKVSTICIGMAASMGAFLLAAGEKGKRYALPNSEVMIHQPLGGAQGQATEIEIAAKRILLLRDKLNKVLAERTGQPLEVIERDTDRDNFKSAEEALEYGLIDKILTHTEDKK
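ClpP 10 microg/mL final, pH 8 Tris/KCl buffer with BSA, glycerol, Tween-20; compound pinned in; FRET-FV substrate; RT 20 min; Ex320/Em430; ΔFRET vs ADEP 5.8 microM, DMSO, no enzyme.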
gsp agonist: gsp mutant agonism; gsp mutant cells, cAMP HTRF, 30 min; control for the full effect not named in the record; Potency, µM (titrated, usually from 76.9 µM), without a hit: at the highest dose activation (cAMP increase), hits mostly activators; hit rate 0.13% among 340,000; AID 624287; active = well fitted activation curve with a large enough effect; inconclusive = small, poorly fitted or top-dose-only effect, or another doubt; inactive = no such curve, though single readings can be large or run the other way; cell line not stated here;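 note: phosphodiesterase inhibitor Ro 20-1724 added with compounds to block cAMP breakdown; potency is the fitted concentration of half-maximal effect; nearly all actives have a fitted effect of over 60% in size; about a fifth of the inactives were tested at one dose only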
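Cells stably selected in G418 were plated at 2000/well, grown 16-24 hr, then given compounds in DMSO with the PDE inhibitor […] (300 uM solution added) for 30 min at 37C; cAMP was read by HTRF.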
Numbers without * were called inactive; ? = inconclusive; nt = no result given; & = joins results of further samples; [ ] = remark or other dose.

SMILES	D2 agonist	Sfp PPTase inh	PINK1 expr mod	Menin MLL FP FL	gsp antagonist	ClpP mod	gsp agonist
CCN(C(=O)c1cc2c(C)nc3ccccc3c2o1)c1cc(Cl)ccc1OC	1.0	-21.7%	-1.0%	5.1	-7.5%	nt	4.9%[15.4 µM]
O=C(CN1CCN(c2ccccc2)CC1)Nc1ccc2c(c1)CCC2	-1.5	-4.6%	0.0%	-2.8	4.9%	nt	-1.8%[15.4 µM]
CC(C)[C@H](NC(=O)C1CC(=O)N(c2ccc3c(c2)OCO3)C1)C(=O)NC1CCCC1 (stereo partly specified)	-4.5	3.4%	-0.6%	?	5.5%	0.7%	1.6%
COC(=O)c1ccccc1NC(=O)c1cc(-c2cccs2)on1	0.3	20.2%	21.1%[38.3 µM]	4.3	7.3%	-5.8%	5.0%
COCCCNCc1cc(C)n(-c2cc(S(=O)(=O)N3CCOCC3)ccc2N2CCCC2)c1C	-4.6	nt	0.0%	nt	4.7%	2.4%	7.8%
COc1cc(/C=C/C(=O)c2c(O)cc(C)oc2=O)cc(OC)c1O	3.4	-23.4%&-22.7%	2.4%	?	-17.5%	28.2µM*	-46.2%[inhibitor]
O=C(CSc1ccc2nnc(-c3cccc(F)c3)n2n1)NCc1ccco1	0.0	2.2%	-1.8%[38.3 µM]	3.7	4.7%	-4.3%	25.5%
O=C(CSc1ncn[nH]1)NCCC(c1ccccc1)c1ccccc1	-4.4	5.5%	1.0%	3.4	-9.5%	1.3%	-0.7%
CCOC(=O)C1=C(C)NC(=O)NC1/C=C/c1ccccc1 (stereo unspecified)	-2.5	13.1%	nt	3.7	7.3%	2.4%	-38.2%[inhibitor]
CCc1c(C)nc2cc(-c3ccc(Cl)cc3)[nH]n2c1=O	7.3	4.5%	-2.8%	-3.5	-4.4%	?	3.9%
Cc1ccc(NC(=O)Nc2ccc(Cl)c(Cl)c2)nc1	-5.8	4.1%	10.8%	2.6	9.6%	-1.1%	2.2%[15.4 µM]
COc1cccc(C(=O)Nn2cnnc2)c1OC	-3.0	1.5%	0.1%	3.7	0.1%	1.1%	17.0%
O=C(/C=C/c1ccc([N+](=O)[O-])cc1)NCC1CCCO1 (stereo unspecified)	-2.0	6.6%	-2.2%	-1.7	9.7%	1.5%	2.0%
CC(C)(CNS(=O)(=O)c1ccc(F)cc1)CNS(=O)(=O)c1ccc(F)cc1	-1.3	7.3%	1.3%	1.4	-7.0%	-0.1%	-31.3%[inhibitor]
Cc1ccc(NC(=O)CCCc2c[nH]c3ccccc23)nc1	-2.4	9.3%	0.5%	0.8	2.5%	-2.1%	-30.2%[inhibitor]
CCN(CC)S(=O)(=O)c1ccc(C)c(NC(=O)Cn2cnc3cc([N+](=O)[O-])ccc3c2=O)c1	?	15.0%	0.9%	-6.3	13.0%	nt	25.8%[15.4 µM]
C[C@@H]1CN([C@@H](C)CO)C(=O)CCCn2cc(nn2)CO[C@H]1CN(C)S(=O)(=O)c1ccccc1	-3.9	nt	-2.2%	nt	nt	1.0%	31.9%
Cc1cc(C(C)(C)C)cc(S(=O)(=O)Nc2ccc(C(=O)O)cc2)c1C	4.5	-8.0%	-0.1%	-1.8	nt	nt	-9.6%[15.4 µM]
CCOC(=O)c1c(C)[nH]c(C(=O)OCCOc2ccc(Cl)cc2)c1C	-2.3	-13.4%	3.8%	7.3	2.1%	-0.1%	?
COc1ccc(OC)c(Nc2nc(-c3sc(NC(=O)CC(C)C)nc3C)cs2)c1	-2.2	4.5%	1.2%	2.7	-0.9%	-18.8%	nt
CC(C)n1c(=O)c2c(O)cc(=O)oc2c2ccccc21	-0.8	-1.0%	16.3%[38.3 µM]	?	-17.3%	-4.3%	2.7%
CC1(Cc2ccc(Cl)c(Cl)c2)C(=O)Nc2ccc(S(=O)(=O)NC3CCCCC3)cc21 (stereo unspecified)	4.0	nt	3.8%	nt	nt	-4.6%	nt
COC(=O)[C@]1(C)N[C@H](CN(C)C(=O)Nc2ccc(OC)cc2)[C@@H]2C(=O)N(Cc3ccccc3)C(=O)[C@@H]21	-0.8	nt	-0.7%	nt	8.0%	1.1%	nt
COC(=O)c1ccc2nc(-c3cccc(Br)c3)c(Cc3ccsc3)n2c1	-3.9	nt	1.5%	nt	nt	?	nt
CC(C)(C)S(=O)(=O)c1ccc2nc3c(n2c1)CCCC3	-1.3	18.1%	3.5%	1.2	-2.5%	28.2µM*	?

(continued)
SMILES	D2 agonist	Sfp PPTase inh	PINK1 expr mod	Menin MLL FP FL	gsp antagonist	ClpP mod	gsp agonist
Cc1nc(-c2ccc(S(=O)(=O)N3CCN(Cc4ccccc4)CC3)s2)cs1	-4.1	8.5%	1.1%	9.4	-20.2%	-14.1%	-0.4%
CCOc1ccccc1C(=O)Nc1ccc(-n2nncc2C(C)(C)C)cc1	-0.9	20.7%	1.2%	-2.2	11.3%	-0.1%	-0.8%[15.4 µM]
Cc1ccc(NC(=S)N(CCN2CCOCC2)Cc2cc3cc4c(cc3[nH]c2=O)OCCO4)cc1	0.0	-6.1%	1.9%	3.6	5.4%	3.0%	14.9%
COC(=O)CSc1nc(C)c(C(=O)Nc2ccccc2C)c(-c2ccc(Cl)cc2)c1C#N	-1.0	?	7.2%	22.2	-6.7%	23.3%	18.9%
O=C(C[C@H]1C[C@H](C(=O)N2CCCCC2)[C@@]2(CCc3ccccc3)c3[nH]c4cc(-c5ccco5)ccc4c3CCN2C1=O)NCCN1CCOCC1	0.3	nt	-0.8%	nt	9.3%	3.5%	nt
CC(C)c1ccccc1NC(=O)COC(=O)CCN1C(=O)/C(=C\C=C\c2ccccc2)SC1=S	0.9	-3.8%	3.4%	6.7	-8.2%	nt	0.4%[15.4 µM]
N#Cc1nc(COc2ccc(Cl)cc2)oc1N1CCN(Cc2ccccc2)CC1	-1.4	-0.8%	-0.6%	0.3	-9.8%	28.2µM*	-26.1%
COc1cc2c(cc1OC)C(c1ccccc1O)NCC2 (stereo unspecified)	4.8	19.5%	-0.1%	5.4	5.7%	-0.3%	-22.6%
CN1CCN(S(=O)(=O)c2cccc([N+](=O)[O-])c2)CC1	0.2	nt	0.3%[38.3 µM]	nt	14.4%	0.9%	32.7%
COc1ccccc1-c1n[nH]c2c1[C@H](C)CC[C@H]2C(C)C	-1.6	-17.3%	6.8%	-0.1	-11.3%	-0.8%	24.1%
CCNC(=O)CC1SC(=Nc2cccc(Cl)c2C)N(C)C1=O (stereo unspecified)	1.6	-9.7%	-2.1%	0.3	2.4%	-2.3%	14.9%
COCCNC(=O)C1(C(F)(F)F)CC(CCCO)CCCO1 (stereo unspecified)	-5.0	4.1%	-0.5%	-3.6	1.5%	0.8%	-24.4%
Cc1ccccc1/C=C/c1nc2ccccc2c(=O)n1CCc1ccccc1	0.0	-12.8%	?	-0.6	-9.4%	-18.2%	7.8%
CCC(CC)c1nnc(NC(=O)CCc2ccc(OC)cc2)s1	2.0	44.7µM*	2.4%	4.0	8.5%	-1.6%	16.5%[15.4 µM]
O=C(c1ccc2c(c1)OCO2)[C@@H]1[C@@H]2C(=O)N(C3CCCCC3)C(=O)[C@@H]2C2c3ccccc3C=CN21 (stereo partly specified)	-6.2	-0.1%	6.5%	10.0	-11.9%	-6.1%	12.7%
CCOC(=O)C1=NOC(Cn2cc(C#N)c(=O)n(C)c2=O)C1 (stereo unspecified)	3.9	24.9%	-0.7%	0.3	2.9%	nt	-31.0%
Cc1cccc(C)c1NC(=O)CSc1nnc(Cc2ccccc2)o1	2.4	7.0%	0.8%	1.4	10.5%	0.8%	2.7%
CCOC(=O)C1(CC2CC2)CCN(C(=O)c2cc(C3CC3)nc3ccccc23)CC1	-0.1	?	-0.9%	4.8	-15.8%	nt	-2.3%[15.4 µM]
O=c1[nH]c(COc2ccc(Cl)cc2Cl)nc2ccccc12	-2.1	14.9%	4.2%	nt	1.1%	-3.5%	?
Cc1c(C(=O)N2CCN(S(=O)(=O)c3ccccc3)CC2)oc2ccc(Br)cc12	-2.3	nt	0.3%	nt	-4.8%	0.0%	21.8%[15.4 µM]
CCN(C(=O)c1cc2c(=O)[nH]c3ccc(C)cc3c2s1)c1cccc(C)c1	-0.7	22.1%	18.8%	1.7	-0.8%	nt	-9.1%[15.4 µM]
CCc1cccc(NC(=O)c2ccc(NS(=O)(=O)c3c(C)noc3C)cc2)c1	-6.8	10.2%	-0.1%	2.5	-13.3%	-1.0%	-9.9%
CC(=O)Nc1ccc(OCC(=O)N(CC(C)C)C2CCS(=O)(=O)C2)cc1 (stereo unspecified)	-2.3	12.1%	-0.3%	-8.0	6.6%	nt	3.2%[15.4 µM]
CCOc1ccc(Oc2ccccc2NS(=O)(=O)c2ccc(CCC(=O)O)cc2)cc1	5.5	nt	-1.7%	nt	-15.7%	0.2%	-6.5%
C=CCNC(=O)CCCCCNS(=O)(=O)c1ccc(OC)cc1	0.1	21.9%	-2.2%[38.3 µM]	3.9	1.9%	-0.2%	1.7%

(further entries)
SMILES	D2 agonist	Sfp PPTase inh	PINK1 expr mod	Menin MLL FP FL	gsp antagonist	ClpP mod	gsp agonist
O=C(NC1CCCCC1)c1ccc2snnc2c1	-0.3	5.1%	5.8%	4.6	-1.0%	nt	-35.1%[15.4 µM]
CCCCOc1cccc(C2/C(=C(/O)c3ccc4c(c3)CC(C)O4)C(=O)C(=O)N2CCN2CCOCC2)c1 (stereo unspecified)	-1.2	-9.2%	-0.9%	-2.9	-4.4%	0.0%	?
O=C(NCc1cccs1)C1CCN(S(=O)(=O)c2cccc([N+](=O)[O-])c2)CC1	?	11.3%	2.2%	-2.5	-6.1%	nt	24.6%
Nc1ccn([C@@H]2O[C@H](C(=O)NCCc3ccc(F)cc3)[C@@H](O)[C@H]2O)c(=O)n1	5.3	nt	1.5%	nt	nt	-0.2%	nt
O=C1CCCCc2cc(O)c(O)cc21	1.0	nt	0.4%	nt	nt	0.2%	26.3%
C/C(=N\Nc1nc(C)c(C)s1)c1ccc([N+](=O)[O-])cc1	?	?	-2.0%	-1.3	7.6%	nt	8.5%[15.4 µM]
Cc1ccsc1C(=O)OCC(=O)N1C(C)CCCC1C (stereo unspecified)	3.4	nt	0.0%	nt	0.8%	0.9%	9.6%
S=C(NCc1ccncc1)Nc1cccc(Cl)c1	2.4	2.2%	-3.0%	4.0	3.8%	-5.4%	-32.3%[inhibitor]
CC(C)(C)OC(=O)N1Cc2ccccc2C[C@H]1C(=O)NCC(=O)NC1CCCC1	-3.6	0.9%	-0.3%	-0.4	5.2%	nt	2.4%
